HPGD inh: inhibitors of human 15-hydroxyprostaglandin dehydrogenase (HPGD) | P15428 | Potency, µM, for inactives: at the top dose activity change, negative = inhibition, most hits filed as inhibitors | actives 4.3% (n = 150,000) | purified HPGD, NADH fluorescence kinetic, PGE2 substrate; active = well fitted inhibition curve with a large enough effect (not every such curve was filed as active); inconclusive = small, poorly fitted or top-dose-only effect, or another doubt; inactive = no such curve, though single readings can be large or run the other way;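 also: top concentration of the series not given in the record; plate controls included wells without enzyme; inactives centre near -10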
Target sequence (P15428 whole entry, looked up): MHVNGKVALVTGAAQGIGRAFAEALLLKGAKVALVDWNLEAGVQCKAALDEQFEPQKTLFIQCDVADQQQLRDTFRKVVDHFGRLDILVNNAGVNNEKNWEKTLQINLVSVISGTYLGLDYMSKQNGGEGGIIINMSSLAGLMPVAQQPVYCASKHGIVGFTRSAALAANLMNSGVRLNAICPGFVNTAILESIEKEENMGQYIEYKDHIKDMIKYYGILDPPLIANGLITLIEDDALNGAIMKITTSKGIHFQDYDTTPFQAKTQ
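20 nM HPGD preincubated 15 min at room temperature with compound in 50 mM Tris-HCl pH 8, 0.01% Tween 20. Started with 1 mM NAD+ and 30 uM prostaglandin E2; NADH fluorescence (360/450 nm) read 5 times over 30-s intervals, last minus first.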
Starred values were filed as active, the others as inactive; ? = inconclusive; & = joins results of further samples. % is scaled to controls: 0 for no effect and ±100 for the full control effect; potency is read from the fitted curve at half-maximal effect. Not all compounds are listed; the hit share may differ from the screen's.

molecule | HPGD inh
COc1ccc(C(=O)NCc2ccc(N3CCN(C(=O)OC(C)(C)C)CC3)cc2)cc1 | -4.3%
CCOc1ccc(OCCSc2nnnn2C2CCCCC2)cc1 | -16.0%
C(=N/Nc1cc(N2CCOCC2)nc(N2CCOCC2)n1)/c1ccccc1 | -6.6%
O/N=C/c1cccn1-c1ccc(O)cc1 | -11.5%
COCCN(C(=S)Nc1ccccc1OC)C(C)c1cccs1 (centres undefined) | -1.1%
O=C(CN1CCSCC1)N/N=C/c1ccc(F)cc1 | -6.1%
CCCc1cc2c(cc1NC(=O)c1ccccc1F)OCO2 | -0.1%
Cc1noc(NS(=O)(=O)c2ccc(NC(=O)CSc3nnc(-c4ccccc4)n3C3CCCCC3)cc2)c1C | 1.4%
CCC1SC2=NC(C)=C(C(=O)OCC(C)C)C(/C=C/c3ccccc3OC)N2C1=O (centres undefined) | -23.5%
FC(F)(F)c1cc(-c2ccccc2)nc2ncnn12 | ?
CN(C)c1ccc(CNC(=O)[C@@]2(C)C=C[C@@H](Cc3ccccc3)N2C)cc1 | -14.8%
O=C(C1=NN[C@@H]2C(=O)N(c3ccccc3C(F)(F)F)C(=O)[C@H]12)C(c1ccccc1)c1ccccc1 | -13.8%
COc1ccc(C2Oc3cc(OC)cc(OC)c3CC2O)cc1 (centres undefined) | -18.5%
CC1CN(C(=O)N[C@@H](Cc2ccccc2)C(=O)O)CC(C)O1 (some centres undefined) | -1.1%
Cc1ccc(S(=O)(=O)N2CC(=O)Nc3ccccc32)cc1 | -4.9%
CCCCCCCCCCCCCCCC(=O)NCCO | -6.5%&-6.4%&1.0%&1.8%
CC(=O)c1cccc(NC(=O)c2ccncc2)c1 | -11.0%
COc1cc(C(=O)Nc2ccc3c(c2)C(=O)c2ccccc2C3=O)cc(OC)c1OC | -18.9%
CCOC(=O)c1cc(C)[nH]c(=S)c1C#N | -13.6%
Cc1cc2ccccc2n2c(SCC(=O)Nc3ccc(S(=O)(=O)N4CCCCC4)cc3)nnc12 | -5.5%
c1ccc2c(c1)Cc1cc3ccccc3nc1-2 | -26.4%
COC(=O)Cc1ccc(OCC(=O)Nc2ccc(OC(F)(F)F)cc2)cc1 | -9.9%
CC1(C)OC2C[C@](O)(C(N)=O)C[C@H](O)[C@H]2O1 (some centres undefined) | -0.4%
Cn1cnnc1SCC(=O)Nc1cc(S(=O)(=O)N2CCCCCC2)ccc1Cl | -3.7%
Cc1ccc(C2=C/C(=C/c3cccs3)C(=O)O2)cc1 | -10.2%
CC(=O)Oc1ccc(C(=O)O)cc1OC(C)=O | -13.4%
Clc1ccc(C2CC(c3ccccc3)Nc3ncnn32)cc1 (centres undefined) | -0.4%
O=[N+]([O-])c1cccc(-c2n[nH]c(=S)n2Cc2ccccc2)c1 | 25.1µM*
CC1=CC(C)(C)Nc2ccc(OC(=O)CN3C(=O)c4ccccc4C3=O)cc21 | ?
Cc1cccc(OCC(=O)Nc2ccccc2C(F)(F)F)c1 | 17.8µM*
Cc1cc2c(=O)[nH]c(N)nc2nc1C | -2.7%
COCC(=O)N1CCC[C@@]2(CCN(C(c3ccccc3)c3ccccc3)C2)C1 | -2.7%
O=CN1CCN(C(=O)COc2ccc(Cl)cc2Br)CC1 | -3.4%
Oc1sc(C=Nc2ccccc2)c2ccccc12 | -24.4%
CCN(CC)c1ccc(/C=N/NC(=S)NCc2ccccc2)c(O)c1 | ?
CCCCCCCCCCCCCC(=O)N[C@@H](C)[C@H](O)c1ccccc1 | -11.3%
CN(C)c1ccccc1C(=O)c1ccccc1N(C)C | -14.5%
CCOC(=O)CSc1nnc2c(n1)C1(C)CCC2C1(C)C (centres undefined) | -22.1%
Cc1ccccc1-c1nc(CN2CCC(C(=O)N3CCC(C(N)=O)CC3)CC2)c(C)o1 | 0.8%
C[N+]1(C2CCC3CCCC2C3O)CCCC1 (centres undefined) | -3.8%
O=C(CSc1nnc(-c2ccncc2)n1C1CCCCC1)Nc1cccc(O)c1 | 1.8%
O=C(COC(=O)C1Cc2ccccc2CN1C(=O)c1ccccc1)Nc1ccc(SC(F)F)cc1 (centres undefined) | -14.8%
COc1ccc(/C=C2/S/C(=N/N=C3\CC4CCC3(C)C4(C)C)NC2=O)cc1 (centres undefined) | -11.8%
CCOC(=O)C1CCCN(C(=S)Nc2ccc(C)cc2C)C1 (centres undefined) | -3.6%
COc1cc2c(Nc3ccc(NC(=O)c4ccccc4)cc3)ncnc2cc1OCCCN1CCOCC1 | -29.6%
O=C(c1cc(S(=O)(=O)N2CCOCC2)ccc1F)N1CCCc2ccccc21 | -4.3%
Nc1cc(N)nc(SCc2nnnn2-c2ccc(Cl)cc2)n1 | -12.8%
CCc1cccc(C)c1NC(=O)COC(=O)Cc1ccsc1 | -9.9%
O=C(COC(=O)c1ccc2[nH]c3c(c2c1)CCCC3)Nc1ccc(Cl)cc1Cl | ?
COC(=O)Cc1cc(=O)[nH]c(/N=C(\N)Nc2ccccc2)n1 | -6.9%

Carrying on:
molecule | HPGD inh
CC(C)CCNC(=O)COc1ccc2c3c(c(=O)oc2c1)CCC3 | ?
CCCCC(=O)Nc1cccc(-c2nnc(-c3ccccc3)o2)c1 | ?
CCC(Sc1ccc2nnc(-c3cccnc3)n2n1)C(=O)O (centres undefined) | -10.6%
CCc1ccc(OCC(=O)NC(=S)Nc2ccc(S(=O)(=O)NC3CCCCC3)cc2)cc1 | -21.9%
CC(=O)Oc1ccc(-c2cccc(C(=O)O)c2)cc1 | -7.7%
Cc1ccc(-c2nc(CS(=O)CC(=O)NCc3ccccc3)c(C)o2)cc1 (centres undefined) | -2.1%
COc1c(O)ccc2cnn(-c3ccccc3C)c(=O)c12 | -10.6%
CC(NC(=O)C(Cc1ccccc1)NC(=O)c1ccccc1)C(=O)O (centres undefined) | -11.0%
COc1c2c(c(C(=O)/C=C/C(C)=C/c3ccccc3)c3c1OCO3)CCN(C)C2 | -2.2%
O=C(c1ccccc1)N1CCN(S(=O)(=O)N2CCCCC2)CC1 | -4.3%
Cc1ccc(O)c(-c2cc(C(=O)Nc3ccc(S(=O)(=O)Nc4nc(C)cc(C)n4)cc3)[nH]n2)c1 | 0.891µM*
O=C(CCNC(=O)c1ccc(Br)o1)NC1CCCC1 | -13.3%
COc1cc2ncnc(Nc3cccc(Br)c3)c2cc1OC | -20.9%
N#Cc1sc2nc(C3CC3)cc(-c3ccccc3)c2c1N | -27.4%
C/C(N[C@@H]1CSCC1O)=C1/C(=O)CC2[C@@H]1C2(C)C (some centres undefined) | -2.8%
CC(C)(C)NC(=O)Cn1nnnc1-c1nonc1N | 3.9%
CC(Sc1ccc(Cl)cc1)C(=O)Nc1ccc(S(=O)(=O)N2CCOCC2)cc1 (centres undefined) | -11.8%
O=C1C2CCCN2C(=O)N1CCCCN1CCN(c2cccc(Cl)c2)CC1 (centres undefined) | -3.7%
Cc1scc(C(=O)N2CCN(S(C)(=O)=O)CC2)c1-c1ccccc1 | -0.3%
C1CCC(Nc2nnnn2C2CCCCC2)CC1 | -16.0%
CC(C)CNC(=O)c1ccccc1NC(=O)c1ccccc1N(C)S(=O)(=O)c1ccccc1 | -19.1%
COc1ccc(N(CC(=O)NCc2ccco2)S(C)(=O)=O)cc1Cl | -16.4%
CC(C)CCNc1nc2c(cc1C#N)COC(C)(C)C2 | ?
CCCCCCS(=O)[C@H]1CS(=O)(=O)C[C@@H]1S(=O)CCCCCC (some centres undefined) | 12.6µM*
O=C(CC1C(=O)N(c2ccc(F)cc2)C(=O)N1Cc1ccccn1)Nc1ccccc1 (centres undefined) | 2.1%
O=c1cc(C(Cl)(Cl)Cl)oc2c1ccc1ccccc12 | -10.8%
O=C(NCCCN1CCCCCC1)C1CC(=O)N(CCc2ccccc2)C1 (centres undefined) | -16.4%
COc1ccc(C(=O)Nc2ccc(S(=O)(=O)Nc3onc(C)c3C)cc2)cc1OC | -13.9%
C=C(C)c1ccc(C(C)(C)NC(=O)NCc2ccco2)cc1 | -2.3%
O=C(CSc1nnc2n1CCCN2)c1ccc(Cl)cc1 | -3.2%
c1ccc(OCCOCCN2CCN(C(c3ccccc3)c3ccccc3)CC2)cc1 | -11.7%
CC(C)(C)NC(=O)CN(C(=O)Cn1nnc(-c2ccc(Cl)cc2)n1)C1CCN(Cc2ccccc2)CC1 | -10.1%
COc1ccc(C(O)c2nc3ccccc3s2)cc1 (centres undefined) | -26.4%
CCCCNC(=O)CNC(=S)N(Cc1cc(OC)c(OC)c(OC)c1)C1CCCC1 | -3.2%
O=C(Nc1cccc(Cl)c1)OCc1cn(-c2ccc(Cl)cc2)nn1 | -9.1%
CCCCSc1cc(=O)n(-c2ccccc2)nc1C(=O)OCC | -18.8%
O=C(NCc1ccc2c(c1)OCO2)c1cc2ccccc2oc1=O | -18.1%
Cc1ccccc1OCC(=O)N/N=C/c1cccn1C | -8.6%
Cc1nn(C)c2ncc(C(=O)c3cc(F)ccc3O)cc12 | -18.9%
COCCn1nnnc1SCC(=O)N1CCCCC1 | -14.8%
Clc1ccc(CNC2CCCC2)c(Cl)c1 | -3.7%
Cc1ccccc1CNC(=O)c1ccc(Cl)c([N+](=O)[O-])c1 | -29.5%
CCCCC/C=C\C/C=C\C/C=C\C=C\C(O)CCCC(=O)O (centres undefined) | -2.7%
Cc1cc(C(=O)CN2C(=O)NC3(CCCc4sccc43)C2=O)c(C)n1-c1ccc(Cl)cc1 (centres undefined) | -12.4%
COC(=O)/C=C1\SC(=Nc2ccccc2)NC1=O | -17.0%
CC(C)[C@H](NC(=O)c1ccc(F)cc1)C(=O)OCC(=O)NC(=O)c1cccn1C | -9.0%
CCOC(=O)c1cnc2ccc(OC)cc2c1NCc1ccccc1 | ?
Cc1cc2c(n1-c1ccc(C(N)=O)cc1)CC(C)(C)CC2=O | -8.0%
COC(=O)c1ccc(C23CC4(C2)[C@H](CN(Cc2ccc(-c5ccccc5)cc2)[C@@H]4c2ccccc2)C3c2ccc(Cl)nc2)cc1 (some centres undefined) | -2.7%
CCn1c(N)c(C(=O)NCCOC)sc1=S | ?

Remaining list, next part
molecule | HPGD inh
CCn1c(=O)cc(SCC(=O)Nc2cccc(SC)c2)c2ccccc21 | ?
CSc1nsc(SC)c1C(=O)OCC(F)(F)F | -19.3%
COc1c(N2C[C@@H]3CCCN[C@H]3C2)c(F)cc2c(=O)c(C(=O)O)cn(C3CC3)c12 | ?
CC(=O)Nc1ccc(S(=O)(=O)Oc2ccc(C(=S)N3CCCCC3)cc2)cc1 | 15.8µM*
O=C(O)CN=C1NC2(CCCC2)Cc2ccccc21 | -4.3%
O=C(OCCN(C1=NS(=O)(=O)c2ccccc21)c1ccccc1Cl)c1ccc(Cl)cc1 | ?
COc1cccc(NS(=O)(=O)c2ccc3c(c2)C2C=CCC2C(c2ccc(C(=O)O)cc2)N3)c1 (centres undefined) | -28.2%
C(/C=C/c1ccco1)=N/N1CCN(c2ccccc2)CC1 | -12.3%
Cc1ccc(/C=N\NC(=O)C2CN(S(=O)(=O)c3ccccc3)CCN2S(=O)(=O)c2ccccc2)cc1 (centres undefined) | -16.1%
O=C(Cc1cccs1)Nc1ccc(Cl)cc1 | -11.0%
CC(C)CN(Cc1cc2ccccc2[nH]c1=O)C(=O)c1cccnc1 | -18.2%
C=CCSc1nc2sc(C)c(C)c2c(=O)[nH]1 | ?
CCOC(=O)c1sc(NS(=O)(=O)c2ccc(NC(C)=O)cc2)nc1C | -28.0%
O=C(CNC(=O)c1cccc(F)c1)N/N=C/c1cc(Br)ccc1OCc1ccccc1 | -23.9%
O=C(c1ncc[nH]1)c1ccccc1C(=O)N1CCOCC1 | -15.4%
CCCCCn1c(NC(=O)c2ccco2)c(S(=O)(=O)c2ccc(C)cc2)c2nc3ccccc3nc21 | ?
Cc1ccccc1S(=O)(=O)Cc1ccc(C(=O)N2CCN(c3ccc(F)cc3)CC2)o1 | -6.5%
CN(C)CCCNCCCNC(=O)/C=N/O | -6.9%
COc1ccc(-c2oc3ncnc(NCCCN4CCOCC4)c3c2-c2ccc(OC)cc2)cc1 | ?
COC(=O)c1cc2c(cc1Cl)SC(=NCCCN1CCOCC1)NS2(=O)=O | -7.0%
C=CCNC(=O)c1c(N)n(-c2cccc(S(N)(=O)=O)c2)c2nc3ccccc3nc12 | ?
CCCC1=C/C(=C/c2ccc(-c3ccccc3OC)o2)C(=O)O1 | ?
O=C(CSCc1ccccc1)NCc1ccc2c(c1)OCO2 | 20µM*
Cc1cc(C)n2nc(C(=O)OCCOc3cccc(Br)c3)nc2n1 | -10.3%
COc1ccc(OC)c(NC(=O)CSc2nnc(Cc3cccn3C)n2-c2ccc(F)cc2)c1 | -5.7%

Two entries from above, reformatted.
> COCC(=O)N1CCC[C@@]2(CCN(C(c3ccccc3)c3ccccc3)C2)C1
  HPGD inh: -2.7%
> Cc1nn(C)c2ncc(C(=O)c3cc(F)ccc3O)cc12
  HPGD inh: -18.9%

Following part
molecule | HPGD inh
Cc1cccc(Nc2nnc(SCC(=O)Nc3cccc(S(=O)(=O)N4CCCCC4)c3)s2)c1 | 20µM*
O=C(c1cccn(Cc2cccc(Cl)c2)c1=O)N1CCOCC1 | -4.3%
COc1ccc(Nc2nc(C)c(-c3ccccc3)s2)cc1 | 20µM*
O=C(NCCCc1ccccc1)c1cccs1 | -8.5%
CCOCCCNC(=O)Cn1ncc2c(=O)oc3ccccc3c21 | -15.2%
Cc1cccc(C)c1NC(=O)C1C2C=CC(C2)C1C(=O)NCc1ccccn1 (centres undefined) | -21.2%
